Source: PubChem (National Center for Advancing Translational Sciences (NCATS))
VDR inh: inhibitors of human vitamin D receptor; P11473; VDR-SRC2-3 peptide fluorescence polarization, 2 h; Potency, µM, inactives show max response, negative = inhibition, usual class: inhibitors; 0.93% of 400,000 active; AID 504847; active = well fitted inhibition curve with a large enough effect; inconclusive = small, poorly fitted or top-dose-only effect, or another doubt; inactive = no such curve, though single readings can be large or run the other way; also: series mostly up to about 120 µM
Target sequence (P11473 whole entry, looked up): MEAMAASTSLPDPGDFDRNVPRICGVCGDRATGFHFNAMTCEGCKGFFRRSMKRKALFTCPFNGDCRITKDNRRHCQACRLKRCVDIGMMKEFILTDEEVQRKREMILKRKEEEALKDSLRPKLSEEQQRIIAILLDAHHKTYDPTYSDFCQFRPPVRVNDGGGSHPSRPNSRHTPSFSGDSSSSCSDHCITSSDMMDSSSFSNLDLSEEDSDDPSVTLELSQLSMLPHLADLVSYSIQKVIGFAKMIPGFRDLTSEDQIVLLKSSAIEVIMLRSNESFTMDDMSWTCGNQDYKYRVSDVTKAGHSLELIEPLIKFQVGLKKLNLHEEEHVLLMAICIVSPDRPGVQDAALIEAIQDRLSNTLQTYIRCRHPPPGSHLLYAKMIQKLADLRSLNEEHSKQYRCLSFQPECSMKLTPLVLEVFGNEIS
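Inhibition of the VDR/SRC2-3 peptide interaction is quantified by fluorescence polarization. Compounds (23 nl, pintool) incubate with the reagents for 2 hours at ambient room temperature.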
An asterisk follows results filed as active; u = inconclusive. % is scaled to controls: 0 for no effect and ±100 for the full control effect; potency is read from the fitted curve at half-maximal effect. An excerpt, so the mix of outcomes need not match the whole.

VDR inh	Compound
-7%	COCC(C)NC(=O)c1nn(Cc2ccccc2)c(=O)c2ccccc12 (stereo not given)
-8%	O=C(NCc1ccc(F)cc1)C1CCC(CNc2c(N3CCOCC3)c(=O)c2=O)CC1 (stereo not given)
-7%	CCOc1ccc(OCCCC(=O)O)cc1
5%	CCOc1ccc(NCC(=O)c2ccc(C)cc2)cc1
-28%	N#C/C(=C\c1ccc(Cl)cc1)C(=O)NC1CC1
-14%	CCOC(=O)c1sc(-c2cccc(C(F)(F)F)c2)nc1O
-14%	CCCc1cc(=O)[nH]c(SCC(=O)N(CCOC)c2c(N)n(Cc3ccccc3)c(=O)[nH]c2=O)n1
6%	COc1ccc(-n2c(=O)c3c(c4cc(OC)ccc4n3C)n(Cc3ccc(F)cc3Cl)c2=O)cc1
5%	CCOc1ccc(NC(=O)CN(C)C(=O)c2ccc(NC3CC3)c([N+](=O)[O-])c2)cc1OCC
1%	OC(COCC1COc2ccccc2O1)CN1CCN(c2ccccc2)CC1 (stereo not given)
40µM*	O=[N+]([O-])c1cc2no[n+]([O-])c2cc1N1CCCCC1
3%	CC1(C)CC(=O)c2ccc(OCc3ccc([N+](=O)[O-])cc3)cc2O1
2%	CN(CC(=O)Nc1ccccc1C(=O)NC1CC1)Cc1ccccc1F
14%	Cc1nn(-c2ccccc2)c(C)c1C(=O)OCC(=O)Nc1ccccc1C(F)(F)F
-4%	Cc1ccc(C(=O)NCC(=O)NC2CC2)cc1
5%	Cc1ccc(-n2cnc3cc(C(=O)NCc4ccccc4Cl)ccc32)c(C)c1

An excerpt from above in order of their number in VDR inh, ascending.
Molecule,VDR inh
COCC(C)NC(=O)c1nn(Cc2ccccc2)c(=O)c2ccccc12 (stereo not given),-7%
Cc1ccc(C(=O)NCC(=O)NC2CC2)cc1,-4%
CN(CC(=O)Nc1ccccc1C(=O)NC1CC1)Cc1ccccc1F,2%

(list continues)
VDR inh	Compound
2%	CCCC1CCC(c2ccc(OCC)cc2)=CC1=O (stereo not given)
2%	CCc1nc2scc(-c3cccs3)c2c(=O)o1
-7%	O=C(C1CCCN(S(=O)(=O)c2cccc3nonc23)C1)N1CCN(c2cccc(C(F)(F)F)c2)CC1 (stereo not given)
-5%	O=C(CN1C(=O)c2ccccc2C1=O)Nc1ccccc1C(=O)N1CCCC1
-14%	Cc1cc(C)nc(N(C#N)Cc2ccc(Cl)cc2)n1
-26%	Cc1c(C(=O)O)oc2ccc(S(=O)(=O)NCc3ccc4c(c3)OCO4)cc12
-4%	Cc1cccc(C(=O)NCCCNC(=O)c2cccc(C)c2)c1
-13%	COc1cc(CNc2ccc3[nH]c(=O)[nH]c3c2)cc(Br)c1OCC(=O)NC(C)(C)C
-18%	O=S(=O)(c1ccccc1)N1CCC2(CCN(c3cccc(-c4ccccc4)c3)CC2)CC1
5%	Cc1ccc(S(=O)(=O)Nc2ccccc2F)cc1C(=O)N1CCCC1
-8%	CCOC(=O)N1CCN(S(=O)(=O)/C=C/c2ccccc2)CC1
-29%	Oc1c(Cl)cccc1C=Nc1cc(C(F)(F)F)ccc1N1CCCC1
-17%	Cc1nc2ccc(S(=O)(=O)NC(C(=O)NCc3cccs3)C(C)C)cc2s1 (stereo not given)
-9%	COc1ccccc1OCCCCN1CCN(C(c2ccccc2)c2ccccc2)CC1
3%	Nc1ncnc2c1[nH]c(=O)n2C1CC(O)C(CO)O1 (stereo not given)
-4%	Cc1c(Cl)cccc1NC(=O)CNS(=O)(=O)c1cccs1
17%	CC(=O)Nc1ccc2c(c1)nc(CCN1CCOCC1)n2C
3%	O=C(NCc1ccncc1)c1nnc(Cc2c(F)cccc2Cl)o1
7%	S=C(Nc1ccccc1Cl)N1CCCC1
12%	O=C(CCSCCc1ccncc1)NCCCN1CCOCC1
19%	Cc1cccc(N2CC(c3nc4ccccc4n3CCC3CCCCC3)CC2=O)c1 (stereo not given)
-7%	CCSc1nnc(NC(=O)CSC2=NN3CCCC(=O)N=C3S2)s1
9%	Cc1cn2c(=O)c(C(=O)NCc3ccc4c(c3)OCO4)cnc2s1
79µM*	CCN(CC)c1ccc(/C=N/Nc2ccccc2)c(O)c1
-4%	COCCn1cc(C(=O)NCCN(C)C)c2c3ccccc3n(C)c2c1=O
-7%	CCOc1ccc(S(=O)(=O)N(C)c2ccc(OCC(=O)NCC3CCCCC3)cc2)cc1
7%	CCN(CC)C(=O)C(=O)N/N=C/c1ccc(Br)cc1
-13%	O=c1[nH]nc(Cc2ccc(-c3ccc(Cl)cc3)o2)c2ccccc12
-10%	CCOC(=O)N1CCN(c2c(N3CCN(c4cccc(C)c4C)CC3)c(=O)c2=O)CC1
-3%	CC(C)c1[nH]nc2c1C(C1C=CCCC1)C(C#N)=C(N)O2 (stereo not given)
-5%	CC(OC(=O)CCNS(=O)(=O)c1cccs1)C(=O)Nc1ccc(S(N)(=O)=O)cc1 (stereo not given)
-29%	Cc1cc(OCC(=O)NCc2ccncc2)c2c(C)c(C)c(=O)oc2c1
-9%	CN(c1ccccc1)S(=O)(=O)c1ccc(Cl)nc1
1%	Cc1ccc(-c2nnc(SCC(=O)Nc3ccccc3F)o2)cc1
-9%	CCCCN(C)CCN1C(=O)C2C(C(=O)Nc3ccc(C)cc3)C3C=CC2(O3)C1C(=O)NC1CCCCC1 (stereo not given)
11%	Cc1c(NC(=O)Cc2noc3ccccc23)cccc1[N+](=O)[O-]
-2%	CC(=O)c1cccc(OCC(=O)N2CCCc3ccccc32)c1
-9%	COc1ccc(Cn2c(NCC(C)C)nc3c2c(=O)n(C)c(=O)n3C)cc1
-1%	CCc1nnc(NC(=O)C(=O)NCCOC(=O)c2ccccc2Cl)s1
-20%	O=C(CN1CCN(S(=O)(=O)c2ccc(Cl)cc2)CC1)Nc1ccc2c(c1)OCCO2
1%	O=C(c1cccs1)n1nc(-c2ccccc2)nc1NCc1ccco1
-14%	CCC(=O)Nc1cccc(-c2ccc(N3CCC(C)CC3)nn2)c1
-5%	O=C(NC(O)C(=O)c1ccccc1)c1ccccn1 (stereo not given)
-12%	CN(CC(=O)Nc1cccc(F)c1)C(=O)CSc1nc2ccccc2s1
-12%	Cc1ccc2c(c1)C1CN(C)CCC1N2S(=O)(=O)c1cc(C(F)(F)F)ccc1Cl (stereo not given)
-5%	O=C(O)c1ccccc1-c1oc2cc(O)ccc2c(=O)c1Oc1ccccc1
3%	O=C(NCC(=O)N1CCN(c2ccccc2O)CC1)c1ccc2c(c1)OCO2
4%	Cc1nnc(NC(=O)CS(=O)(=O)Cc2ccccc2)s1
23%	CC(=O)C1=C(O)C(=O)N(CCCCCC(=O)O)C1c1ccc(N(C)C)cc1 (stereo not given)
u	CN(CC(=O)Nc1cccc(F)c1)C(=O)/C=C/c1ccc(S(=O)(=O)N2CCCCCC2)cc1
2%	O=C(NCC(c1cccs1)S(=O)(=O)c1cccs1)c1ccccc1F (stereo not given)
-14%	O=C(c1cccc2ccccc12)C1CCCN(C(=O)c2ccc(N3CCOCC3)cc2)C1 (stereo not given)
-26%	O=C(COc1ccc(S(=O)(=O)N2CCOCC2)cc1)NCCCn1ccnc1
-15%	CC1(C)CC(=O)C2=C(C1)NC1=C(C(=O)c3ccccc31)C2c1cc([N+](=O)[O-])ccc1O (stereo not given)
6%	Fc1ccc(CO/N=C/C2=C(Cl)c3ccccc3CC2)cc1
u	O=C1Nc2cc(Cl)cnc2N2CCCC12 (stereo not given)

Remaining list, next part.
VDR inh	Compound
4%	Cc1cc(C)n(-c2ccccc2[N+](=O)[O-])n1
-10%	COc1cc(CN2CCCC(C)C2)cc([N+](=O)[O-])c1O (stereo not given)
-1%	CCOCc1c(C(=O)Nc2cc(OCC)c(N3CCOCC3)cc2OCC)oc2ccccc12
-28%	O=[N+]([O-])c1ccc(C2CCCC/C2=N\OCc2cccc(F)c2)c([N+](=O)[O-])c1 (stereo not given)
12%	NC(=O)c1ccc(-c2noc(-c3cccc(Cl)c3)n2)cc1
-15%	CSc1cccc(NC(=S)NCCCN2CCN(c3ccc(F)cc3)CC2)c1
-4%	Cc1ccc(-n2c(=O)cc(N3CCN(c4ccccc4Cl)CC3)[nH]c2=O)cc1
7%	COc1ccc(C2CC(=O)c3ccc(OC)cc3O2)cc1 (stereo not given)
6%	CCOC(=O)c1nnn2c1nc(N1CCN(c3ccccc3)CC1)c1ccccc12
-6%	Cc1ccc2c(c1)c1c(n2CC(O)CNC2CCCC2)CCCC1 (stereo not given)
u	O=C(O)CC/C(=C\c1ccc(N2CCCC2)c([N+](=O)[O-])c1)c1nc2ccccc2s1
-6%	CC1C/C(=N/Nc2nc3ccccc3[nH]2)CC(C)(C)C1 (stereo not given)
6%	COCCCNC(=O)C1CCCN(c2ncnc3onc(C)c23)C1 (stereo not given)
-19%	C=CCn1c(COc2cccc(C)c2)nnc1SC(C)C(=O)NC1CC1 (stereo not given)
5%	O=C(Nc1cccc([N+](=O)[O-])c1)c1ccc2nc(N3C(=O)CCC3=O)sc2c1
6%	COc1ccc(CN(C)C(C)C(=O)Nc2ccc(S(=O)(=O)N3CCCCC3)cc2)c(OC)c1 (stereo not given)
-20%	CCC(CC)c1nnc(NC(=O)CSCC(=O)Nc2cc(C)on2)s1
8%	COc1ccc(C2=NC(=O)/C(=C\c3cc(OC)c(OC)c(OC)c3)O2)cc1
8%	O=S(=O)(c1ccccc1Cl)N1CCC(Cc2ccccc2)CC1
0%	COc1ccccc1NC(=O)c1ccc(NC2=NC3CS(=O)(=O)CC3S2)cc1 (stereo not given)
0%	O=[N+]([O-])c1ccccc1Nc1c2ccccc2nc2ccccc12
-2%	Cn1c(=O)c2cc(S(=O)(=O)N3CCC(c4ccccc4)CC3)ccc2n(C)c1=O
79µM*	NNC(=O)c1[nH]c2ccc([N+](=O)[O-])cc2c1-c1ccccc1
-17%	COC(=O)CNC(=O)Cn1c(=O)n(Cc2ccc(F)cc2)c(=O)c2sccc21
-21%	CC(C)CC(=O)Nc1ccccc1Oc1ccccc1
u	Cc1ccc(NC(=O)/C(C#N)=C(\N)C(Cl)(Cl)Cl)nc1
-8%	Cc1cc(C)n2nc(SCc3ccccc3F)nc2n1
-3%	Cc1ccc(C2CC(c3ccco3)=NN2S(C)(=O)=O)cc1 (stereo not given)
-8%	CC(=O)Nc1ccc(N=Cc2nc(-c3ccc(C)cc3)oc2O)cc1
4%	CCOC(=O)C1=C(N)OC2=C(C(=O)CCC2)C1c1ccc2c(c1)OCO2 (stereo not given)
13%	CN(C)CCCN(CCCN(C)C)C(=S)Nc1ccc(S(=O)(=O)N2CCOCC2)cc1
-11%	CN(CCCN(Cc1ccc(Cl)cc1)c1ccc(Br)cn1)C(=S)NCCCc1cnc[nH]1
-17%	CC(CCCC(C)(C)O)NC(=O)c1ccc(OC2CCN(C(=O)C3CC3)CC2)cc1 (stereo not given)
-2%	COc1cccc(CNCCO)c1OCc1ccc(Cl)cc1
-5%	Nc1[nH]c(=O)nc2snnc12
0%	CCOc1ccc(NC(=S)Nc2ccc(OC)cc2)cc1
-20%	COc1cccc(C(=O)/C=C2\NCCc3cc(OC)c(OC)cc32)c1
0%	O=C(CCN1CCCCC1)Nc1ccc2c(c1)C(=O)c1ccc(NC(=O)CCN3CCCCC3)cc1C2=O
-15%	Cn1cnc([N+](=O)[O-])c1Sc1nc2ccccc2[nH]1
-5%	Cc1ccc(NC(=O)CSCC(=O)N(C)CCOc2ccc(Cl)cc2)cc1
3%	Cc1nc2c(C)cccc2cc1C(=O)N/N=C/c1cccnc1
-2%	CC1CCCN(CCC(=O)c2ccccc2)C1 (stereo not given)
-3%	CCOc1ccc(-n2c(SCC(=O)NCc3ccccc3)nc3n[nH]c(C)c3c2=N)cc1
2%	COc1ccc(CNc2nc3ccccc3n2CCN2CCCCC2)cc1
13%	CCN(CC)S(=O)(=O)c1cc(NC(=O)Cc2ccsc2)ccc1C
-6%	CC(C)NC(=O)CSc1nc(N)c(-c2ccccc2)c(=O)[nH]1
-12%	O=C(Cc1ccccc1)Nc1c(C(=O)c2ccccc2)oc2ccccc12
-18%	COc1ccccc1NC(=O)Cn1c(=O)n(Cc2ccco2)c(=O)c2cccnc21
1%	Cn1c(=O)c(-c2ccccc2)cc2ccccc21
-18%	Cn1nc(C(=O)NCc2ccccc2CN2CCCC2)c2ccccc2c1=O
-3%	CC(CC(=O)Nc1ccccc1C(F)(F)F)c1ccccc1 (stereo not given)

A portion of the results above:
VDR inh	Compound
-11%	CN(CCCN(Cc1ccc(Cl)cc1)c1ccc(Br)cn1)C(=S)NCCCc1cnc[nH]1
-17%	CC(CCCC(C)(C)O)NC(=O)c1ccc(OC2CCN(C(=O)C3CC3)CC2)cc1 (stereo not given)
-2%	COc1cccc(CNCCO)c1OCc1ccc(Cl)cc1
-5%	Nc1[nH]c(=O)nc2snnc12
0%	CCOc1ccc(NC(=S)Nc2ccc(OC)cc2)cc1
-20%	COc1cccc(C(=O)/C=C2\NCCc3cc(OC)c(OC)cc32)c1
0%	O=C(CCN1CCCCC1)Nc1ccc2c(c1)C(=O)c1ccc(NC(=O)CCN3CCCCC3)cc1C2=O
-15%	Cn1cnc([N+](=O)[O-])c1Sc1nc2ccccc2[nH]1
-5%	Cc1ccc(NC(=O)CSCC(=O)N(C)CCOc2ccc(Cl)cc2)cc1
3%	Cc1nc2c(C)cccc2cc1C(=O)N/N=C/c1cccnc1
-2%	CC1CCCN(CCC(=O)c2ccccc2)C1 (stereo not given)
-3%	CCOc1ccc(-n2c(SCC(=O)NCc3ccccc3)nc3n[nH]c(C)c3c2=N)cc1
2%	COc1ccc(CNc2nc3ccccc3n2CCN2CCCCC2)cc1
13%	CCN(CC)S(=O)(=O)c1cc(NC(=O)Cc2ccsc2)ccc1C
-6%	CC(C)NC(=O)CSc1nc(N)c(-c2ccccc2)c(=O)[nH]1
-12%	O=C(Cc1ccccc1)Nc1c(C(=O)c2ccccc2)oc2ccccc12
-18%	COc1ccccc1NC(=O)Cn1c(=O)n(Cc2ccco2)c(=O)c2cccnc21
1%	Cn1c(=O)c(-c2ccccc2)cc2ccccc21
